# Compound activity: PubChem BioAssay, National Center for Advancing Translational Sciences (NCATS)
# SARS PLP yeast = qHTS of Yeast-based Assay for SARS-CoV PLP | S. cerevisiae expressing SARS-CoV PLpro, growth rescue; control for the full effect not named in the record | Potency, µM (doses to about 32.9 µM), without a hit: at the highest dose activity, positive = growth rescue | actives 0.19% (n = 330,000); active means well fitted rising curve with a large enough effect; inconclusive means small, poorly fitted or top-dose-only effect; inactive means no such curve, though single readings can be large or run the other way; further: 0% is about no effect; nearly all actives have a fitted effect of over 55% in size; growth read by luminescence after 48 h
# RE007 growth inh = qHTS Assay for Inhibitors of the HIV-1 protein Vpr | S. pombe RE007 Vpr strain, BacTiter-Glo ATP luminescence, 24 h; control for the full effect not named in the record | Potency, µM (series often up to 92.2 µM), without a hit: top-dose activity change, negative = less growth | actives 0.21% (n = 360,000); active = well fitted falling curve with a large enough effect; inconclusive = small, poorly fitted or top-dose-only effect; inactive = no such curve, though single readings can be large or run the other way;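 further: on the % scale 0 is the no-effect control and ±100 the full control effect; nearly all actives have a fitted effect of over 50% in size; the assay follows cell death caused by Vpr and the record does not say whether a fall means rescue or toxicity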
#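 Fission yeast RE007 carrying one integrated HIV-1 vpr copy, seeded at OD 0.01 in PMG+AL medium with 23 nL pinned compound. Grown 24 h at 30 degrees; viability read by BacTiter-Glo luminescence after 5 min.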
# 2A StopGo = High Throughput Screening for Foot and Mouth Disease Virus Antivirals; human cells with a luciferase reporter of 2A StopGo recoding; control for the full effect not named in the record; Potency, µM (highest dose often 57.9 µM), without a hit: at the highest dose signal change, negative = less light; actives 1.2% (n = 410,000); AID 1159524, 2015; active = well fitted falling curve with a large enough effect; inconclusive = small, poorly fitted or top-dose-only effect; inactive = no such curve, though single readings can be large or run the other way; tested in HEK293T cells; further: on the % scale 0 is the no-effect control and ±100 the full control effect; nearly all actives have a fitted effect of over 45% in size; luciferase light after 4 h
# Cruzain inh noDet = qHTS Assay for Promiscuous and Specific Inhibitors of Cruzain (without detergent); Cruzipain (Trypanosoma cruzi), P25779; actives 2.3% (n = 200,000); purified cruzain, Z-FR-AMC fluorescence, no detergent; Potency, µM, inactives show max response, negative = inhibition, most hits filed as inhibitors; AID 1476, 2009;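 further: plate controls were enzyme without inhibitor for no effect and buffer without enzyme for full effect; nearly all actives have a fitted effect of over 40% in size; top concentration of the series not given in the record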
# Target sequence (P25779 123-467 limits assumed): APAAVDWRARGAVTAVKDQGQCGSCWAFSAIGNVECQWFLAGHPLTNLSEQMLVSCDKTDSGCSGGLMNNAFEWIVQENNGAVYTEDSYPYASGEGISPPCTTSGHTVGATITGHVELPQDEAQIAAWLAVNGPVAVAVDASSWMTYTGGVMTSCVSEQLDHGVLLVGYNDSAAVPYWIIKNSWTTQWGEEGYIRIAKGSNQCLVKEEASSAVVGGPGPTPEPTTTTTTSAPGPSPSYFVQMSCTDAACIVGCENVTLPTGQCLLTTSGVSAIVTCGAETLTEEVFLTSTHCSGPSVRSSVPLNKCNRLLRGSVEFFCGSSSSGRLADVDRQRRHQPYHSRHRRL
#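 Purified cruzain at 1.5 nM, pre-incubated 15 min with compound at room temperature in 100 mM sodium acetate pH 5.5, 5 mM DTT, 0.00005% Triton X-100. Reaction started with 2 uM Z-FR-AMC; AMC fluorescence increase over 60 s gives rate.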
# Lassa entry inh = qHTS for Inhibitors of binding or entry into cells for Lassa Virus; Lassa virus pseudotype entry inhibition, cell reporter; control for the full effect not named in the record; Potency, µM (doses to about 37.9 µM), without a hit: at the highest dose activity change, negative = inhibition, actives largely listed as inhibitors; actives 1.2% (n = 300,000); AID 540256, 2011; active means well fitted inhibition curve with a large enough effect; inconclusive means small, poorly fitted or top-dose-only effect, or effect the other way; inactive means flat fitted curve, though single readings scatter; tested in HEK293 cells; further: on the % scale 0 is the no-effect control and ±100 the full control effect; nearly all actives have a fitted effect of over 50% in size; luciferase read-out
# Cruzain inh Det = qHTS Assay for Promiscuous and Specific Inhibitors of Cruzain (with detergent); Potency, µM, for inactives: max response, negative = inhibition, usual class: inhibitors; actives 0.43% (n = 200,000); Cruzipain (Trypanosoma cruzi), P25779; purified cruzain, Z-FR-AMC fluorescence, 0.01% Triton;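 further: plate controls were neutral wells for no effect and buffer without enzyme for full effect; nearly all actives have a fitted effect of over 40% in size; top concentration of the series not given in the record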
#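 Detergent-containing arm of a paired screen for aggregation-based inhibition: 0.01% Triton X-100 present. Cruzain at 1.5 nM cleaved 2 uM Z-FR-AMC at pH 5.5 with 5 mM DTT; AMC fluorescence gain over 60 s measured activity.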
# NS1 inh = qHTS Assay for Inhibitors of Influenza NS1 Protein Function. S. cerevisiae slowed by influenza A NS1, growth recovery by OD600. Potency, µM (top dose mostly 46.1 µM), without a hit: at the highest dose activity, positive = more growth. actives 0.4% (n = 270,000); active means well fitted rising curve with a large enough effect; inconclusive means small, poorly fitted or top-dose-only effect; inactive means no such curve, though single readings can be large or run the other way; further: nearly all actives have a fitted effect of over 50% in size
#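 A cell-based growth assay was used: compounds that relieve NS1-induced slow growth of budding yeast raise OD600. Assay medium was yeast nitrogen base with ammonium sulphate and -URA supplement, pH 6.0, with 2% galactose.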
# Marburg entry inh = qHTS for inhibitors of binding or entry into cells for Marburg Virus | Potency, µM (titrated, usually from 37.8 µM), for inactives: at the top dose activity change, negative = inhibition, hits mostly inhibitors | Marburg virus pseudotyped entry inhibition, cell reporter; control for the full effect not named in the record; about a third of the inactives were read at about 46 µM | actives 1.8% (n = 300,000); active = well fitted inhibition curve with a large enough effect; inconclusive = small, poorly fitted or top-dose-only effect, or effect the other way; inactive = flat fitted curve, though single readings scatter; tested in HEK293 cells; about a fifth of its hits are not listed in these tables; further: on the % scale 0 is the no-effect control and ±100 the full control effect; luciferase read-out
# Starred values were filed as active, the others as inactive; ? = inconclusive; · = not tested or not shown; & = joins results of further samples; [ ] = dose if it differs, or a comment. Unless noted, the call rests on the fitted dose curve; in most records, active means well fitted curve in the direction sought with a large enough effect; inconclusive means small, poorly fitted or top-dose-only effect, or another doubt; inactive means no such curve, though single readings can be large; an effect the other way counts as inactive or inconclusive. Potency means the concentration at half of the fitted maximal effect.
SMILES,SARS PLP yeast,RE007 growth inh,2A StopGo,Cruzain inh noDet,Lassa entry inh,Cruzain inh Det,NS1 inh,Marburg entry inh
Cc1ccc2nc(SCC(=O)Nc3nnc(SCC(N)=O)s3)[nH]c2c1,0.9%,12.1%,12.2%,-0.6%,-1.4%,3.1%,-1.4%,20.6%
CCCCC1=CC2=C(c3ccco3)C(=O)C(C)(OC(=O)c3ccc(OC)cc3)C(=O)C2=CN1CC(C)C (stereo not given),0.1%,-3.2%,-18.4%,·,·,·,-4.8%,·
COc1ccc(N2C(=O)CCC(C(=O)N3CCN(c4ccccn4)CC3)C2c2ccc(F)cc2)cc1 (stereo not given),-3.4%,3.9%,-18.6%,·,-4.5%[46.1 µM],·,·,-4.8%[46.1 µM]
CCOC(=O)c1cc(C(=O)NN)c(=O)[nH]c1C,1.3%,0.8%,3.4%,·,20.2%,·,7.6%,?
COc1ccccc1NC(=O)c1nnn(CC(=O)Nc2cccc(SC)c2)c1N,-4.0%,-8.0%,0.1%,?,5.3%,-3.5%,1.2%,15.0%&15.0%
Cc1cc(S(=O)(=O)N2CCN(c3ncccn3)CC2)ccc1-n1cnnn1,23.9%,0.7%,-19.9%,-1.8%,0.2%,-0.9%,-3.7%,8.9%[46.1 µM]
CCCCN(CC)CCCNC(=O)c1cc2c(=O)[nH]c3ccccc3c2s1,0.5%,-18.7%,-15.8%&-21.2%,-3.6%,-18.5%,-2.5%,-2.9%,7.08µM*
O=S(=O)(/N=C(/Nc1ccc(F)cc1F)c1ccccc1)c1ccccc1,1.2%,0.2%,9.7%,10.3%,3.5%,0.6%,13.4%,5.1%
O=C1C=C(NS(=O)(=O)c2ccccc2)C(=O)c2ccccc21,·,?,1.2%,·,-5.5%[46.1 µM],·,·,-2.1%[46.1 µM]
C/C(=N/NC(=O)CNS(=O)(=O)c1ccccc1)c1ccc(Br)cc1,-1.7%,1.8%,46.8%[activator],·,2.8%,·,3.7%,-7.5%
COCC(C)NC(=O)CSc1nc2ccccc2n1CCc1ccccc1 (stereo not given),-4.6%,-13.7%,-21.7%,9.8%,·,0.3%,-17.2%,3.4%
COc1ccccc1CNC(=O)c1ccc(NS(C)(=O)=O)cc1,0.4%,-0.2%,·,-3.7%,0.5%,-1.1%,-42.8%,24.6%
O=C(Nc1ccc(S(=O)(=O)Nc2ncccn2)cc1)c1ccc(S(=O)(=O)N2CCCC2)cc1,6.7%,-5.1%,8.0%,·,16.2%[46.1 µM],·,·,11.3%[46.1 µM]
CCOc1ccc(C(=O)NC(C(=O)NCCc2ccc(S(N)(=O)=O)cc2)C(C)C)cc1 (stereo not given),-0.9%,-20.2%,13.6%,·,-27.0%,·,-0.1%,?
C=Cc1ccc(Cn2c(=O)n(-c3ccc(C)cc3)c(=O)c3c2c2cc(OC)ccc2n3C)cc1,·,·,-6.8%,3.3%,?,-2.6%,·,·
COc1cc(/C=N/NC(=O)c2nnn(-c3nonc3N)c2C(C)C)ccc1O,14.8%,-2.2%,0.0%,·,·,·,1.2%,·
COc1ccc(-n2cccc2/C=C2\C(=N)N3N=C(c4ccco4)SC3=NC2=O)cc1,-0.1%,1.8%,-5.2%,·,8.0%,·,·,0.8%[46.1 µM]
CCOC(=O)c1c(/N=C/c2cccc([N+](=O)[O-])c2O)sc2c1CCC2,-4.6%,-22.0%,?,·,-5.3%[46.1 µM],·,-59.5%,5.8%[46.1 µM]
COc1ccccc1N1CCN(C(=O)c2ccc(CS(=O)(=O)c3ccccc3OC)o2)CC1,5.3%,10.8%,?,?,0.6%,6.7%,-9.8%,5.5%&2.2%
CCOP(=O)(OCC)c1ccc(OP(=O)(c2cccc([N+](=O)[O-])c2)c2cccc([N+](=O)[O-])c2)cc1,-0.1%,15.0%,-10.4%,·,-37.2%,·,-0.2%,18.8%
COc1cc(C2Nc3cccc4cccc(c34)N2)ccc1O,?,3.6%,-9.3%,·,11.7%,·,22.7%,-27.0%
Cc1ccc(CC2C(=O)N(C)C(=O)N(C)C2=O)s1,4.1%,11.8%,5.1%,-3.7%,-2.2%,-1.0%,21.0%,13.2%
N#CCCN(C(=O)c1cc2c(s1)-c1ccccc1S(=O)(=O)C2)c1ccccc1,-0.2%,14.7%,?,·,·,·,7.1%,·
O=C1CCSC2(C(=O)N(Cc3ccc(F)cc3)c3ccccc32)N1c1ccccc1 (stereo not given),·,·,-19.6%,-5.8%,?,-5.5%,·,·
COc1ccccc1NC(=O)c1cc(Cl)nnc1Cl,-1.5%,-2.3%,-17.4%,·,?,·,·,?
COc1ccc2c(=O)c(N3C(=O)c4ccccc4C3=O)coc2c1,1.7%,-2.6%,0.7%,12.8%,13.8%,-1.1%,?,0.1%
CCN(C(=O)COC(=O)C1CCN(S(=O)(=O)c2c(Cl)cccc2Cl)CC1)C1CCCCC1,0.8%,13.0%,-16.9%,·,-6.7%,·,-26.4%,-2.0%
CCSc1nc2ccccc2c(=O)n1CCc1ccc(OC)c(OC)c1,1.8%,0.1%,?,·,·,·,-64.3%,·
O=C(/C=C/c1ccc(F)cc1)NC(=S)Nc1ccccc1O,0.6%,-5.1%,-5.2%,·,·,·,-1.6%,?
COc1ccccc1N(C)S(=O)(=O)c1ccc(C(=O)Nc2cc(F)ccc2C)cc1,3.2%,-4.3%,-16.6%,·,?,·,·,8.6%[46.1 µM]
COc1ccc(NC(=O)Nc2c(SC)nsc2SC)cc1,0.9%,-3.3%,-6.6%,·,1.1%,·,·,-8.2%&-8.2%[46.1 µM]
Cc1ccccc1CS(=O)(=O)c1ncc(Cl)c(C(=O)Nc2nnc(C(C)C)s2)n1,·,·,20µM*,-3.3%,?,-5.1%,·,?
Cc1cc(/C(N)=N/OC(=O)Nc2ccccc2)no1,1.3%,0.2%,53.8%[activator],·,?,·,-4.8%,14.1%
CCc1nnc2c(Nc3ccc(Br)c(C)c3)nc3ccccc3n12,·,·,-0.7%,1.7%,-1.6%[46.1 µM],1.5%,·,·
CCCCNC(=O)CN1C(=O)NC2(CCOc3ccccc32)C1=O (stereo not given),-1.0%,-12.9%,-0.6%,·,-14.5%,·,-1.3%,1.8%[46.1 µM]
CN(C)C(=O)c1ccccc1NC(=O)Cc1cccc2ccccc12,4.1%,-8.1%,-1.6%,·,·,·,-6.5%,·
Cc1cccc(CCNC(=O)C2CCC(CNc3c(N4CCCC4)c(=O)c3=O)CC2)c1 (stereo not given),-3.3%,-9.1%,0.0%,0.5%,·,-1.3%,-4.1%,-1.8%
Oc1[nH]c2c(Cl)cc(Cl)cc2c1N=NC(=S)NCC1CCCO1 (stereo not given),8.8%,10.7%,25.1µM*,0.4%,?,-3.6%,23.8%,?
Cc1cnc(=O)[nH]c1SCC(=O)c1ccc(F)cc1,-0.1%,2.6%,6.2%,·,·,·,1.6%,·
O=C(CNc1cccc2ccccc12)N/N=C/c1ccc(OC(=O)/C=C/c2ccco2)cc1,0.7%,1.4%,-10.4%,?,-16.2%[46.1 µM],2.4%,2.3%,5.2%[46.1 µM]
CN(C)C(=O)CCc1nc2sc3c(c2c(=O)[nH]1)CCCC3,-3.3%,-21.5%,1.1%,5.7%,2.4%,-0.1%,3.1%,?
CCC(C)N(C(=O)CCC(=O)Nc1cc(C)on1)C(C(=O)NC(C)(C)C)c1ccccc1Cl (stereo not given),2.6%,16.7%,-5.6%,·,2.6%,·,8.9%,-7.6%[46.1 µM]
Cc1cc(C)c(S(=O)(=O)c2ccccc2F)c(=O)[nH]1,0.2%,3.8%,12.3%,·,21.2%[46.1 µM],·,-11.5%,?
CCc1ccc(OCCn2ccnc2)cc1,-5.0%,2.0%,1.9%,·,6.3%,·,-6.7%,7.9%
COc1cc(C(=O)NCC(=O)N/N=C/c2ccco2)cc(OC)c1OC,-3.3%,-14.4%,-16.8%,·,?,·,2.6%,?
COc1ccc(N2CCN(C(=O)CCn3cnc4onc(-c5ccc(F)cc5)c4c3=O)CC2)cc1,·,·,-19.4%,-8.3%,-2.8%[46.1 µM],0.7%,·,·
CCCC(=O)Nc1cccc(NC(=O)c2ccc([N+](=O)[O-])cc2Cl)c1,5.3%,-4.5%,-15.7%,8.9%,-0.3%,4.9%,-5.5%,-7.1%
Cc1c(NS(=O)(=O)c2ccc(N=NN(C)C)cc2)c(=O)n(-c2ccccc2)n1C,-4.1%,-1.3%,7.7%,·,·,·,7.0%,·
COc1cccc(CN2CCN(Cc3[nH]c4ccccc4c3C)CC2CCO)c1 (stereo not given),0.4%,9.9%,14.9%,·,7.7%[46.1 µM],·,?,?
NC(=O)COC(=O)CC12CC3CC(CC(Br)(C3)C1)C2,0.7%,9.5%,18.8%,·,10.0%[46.1 µM],·,4.0%,-0.7%[46.1 µM]
O=C(O)C1CC=CCC1C(=O)Nc1ccc2c(c1)CCC2 (stereo not given),1.1%,-12.5%,-21.4%,·,·,·,8.1%,·
CCn1c(CNC(=O)c2ccco2)nnc1SCC(=O)Nc1ccccc1Cl,1.1%,?,-10.5%,·,2.2%[46.1 µM],·,14.7%,-12.9%[46.1 µM]
CCNC(=O)COC(=O)c1cc(C)nc2ccccc12,2.1%,19.5%,-7.9%,·,10.1%,·,·,-2.5%[46.1 µM]
CCOc1ccc(N(CC(=O)NC2CCCC2)S(=O)(=O)c2ccccc2)cc1,0.7%,2.9%,-7.4%,·,3.9%,·,-1.3%,-12.4%[46.1 µM]
CC(=O)Cn1nnc(-c2ccc(C(F)(F)F)cc2)n1,0.7%,-9.3%,34.6%[activator],·,·,·,2.4%,·
CCOC(=O)c1sc2nccc(OC)c2c1N=CN(C)C,-1.0%,1.5%,-5.4%,·,16.5%,·,·,-5.2%[46.1 µM]
CCN(C(=O)CN(C)Cc1c(F)cccc1Cl)c1c(N)n(Cc2ccccc2)c(=O)[nH]c1=O,-6.7%,0.6%,-7.2%,-4.9%,18.4%,-2.0%,4.1%,?
COc1ccc(S(=O)(=O)/N=C2/C=CC(=O)C(C)=C2C)cc1,5.0%,-4.1%,-9.7%,-24.2%,-9.0%,-3.3%,14.4%,?
